Mtb MbtI inh: inhibitors of Mycobacterium tuberculosis siderophore enzyme MbtI; inhibition, %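 (about 17 µg/mL by stock and volumes)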; purified MbtI enzyme, fluorescence intensity read-out; P9WFX0; AID 493033; 100,000 compounds, 0.89% hits;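 active means above 50% in both replicates, above 80% if mildly self-fluorescent; inactive means the rest, strongly fluorescent compounds included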;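 further: 0% = mean of negative and 100% = mean of positive controls; one replicate is shown; some compounds called inactive have numbers as strong as hits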
Target sequence (P9WFX0 whole entry, looked up): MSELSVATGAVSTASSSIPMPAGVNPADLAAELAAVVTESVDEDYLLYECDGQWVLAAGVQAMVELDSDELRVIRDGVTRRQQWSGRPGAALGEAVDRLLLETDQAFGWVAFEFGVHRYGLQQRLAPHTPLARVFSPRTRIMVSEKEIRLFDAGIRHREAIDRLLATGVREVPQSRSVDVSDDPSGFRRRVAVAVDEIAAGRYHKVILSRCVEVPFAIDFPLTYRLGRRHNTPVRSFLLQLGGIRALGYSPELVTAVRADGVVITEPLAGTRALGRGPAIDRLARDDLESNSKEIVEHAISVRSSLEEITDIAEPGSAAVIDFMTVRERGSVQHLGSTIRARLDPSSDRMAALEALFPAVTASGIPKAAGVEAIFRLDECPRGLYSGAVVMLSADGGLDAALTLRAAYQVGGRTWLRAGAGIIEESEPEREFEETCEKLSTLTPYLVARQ
Mtb MenB inh: blocks the Mycobacterium tuberculosis MenB enzyme; P9WNP5; MenB enzyme assay, absorbance read-out; some hits fall short of the stated cut; inhibition, %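 (about 12 µg/mL by stock and volumes)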; 100,000 compounds, 0.43% hits; AID 540299;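 active means mean of two replicates above 30%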;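 further: 0% = no compound and 100% = wells with inactive enzyme; the first replicate is given; strong numbers were not always called active; inactives centre near -10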
PV pol inh: inhibitors of poliovirus RNA polymerase binding and polymerization. P03300. poliovirus polymerase elongation, fluorescence polarization; active compounds read low. % elongation, % (compound at 16.7 µg/mL). 150,000 compounds, 0.66% hits. AID 588519; in the data active means % elongation below about 90%; further: some results filed as inactive read as strong as hits
Target sequence (P03300 1749-2209 limits assumed): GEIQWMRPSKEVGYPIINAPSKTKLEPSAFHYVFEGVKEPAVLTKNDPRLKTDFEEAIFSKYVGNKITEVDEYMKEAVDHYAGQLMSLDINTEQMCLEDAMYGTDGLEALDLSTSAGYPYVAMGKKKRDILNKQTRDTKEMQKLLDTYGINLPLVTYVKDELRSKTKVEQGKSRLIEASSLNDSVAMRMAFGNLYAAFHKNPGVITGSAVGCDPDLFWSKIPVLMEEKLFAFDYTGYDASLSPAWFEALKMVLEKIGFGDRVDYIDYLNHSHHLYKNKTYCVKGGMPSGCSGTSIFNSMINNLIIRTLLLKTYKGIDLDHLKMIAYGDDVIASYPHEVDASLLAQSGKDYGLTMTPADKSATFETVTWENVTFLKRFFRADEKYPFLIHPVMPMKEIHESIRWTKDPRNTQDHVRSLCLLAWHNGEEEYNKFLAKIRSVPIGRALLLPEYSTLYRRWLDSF
PV pol inh intensity: also measured in PV pol inh; calls as there; % elongation; measured here: total intensity read-out; formula for this scale not given here;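 total fluorescence in place of polarization; lower means less elongation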
Numbers without * were called inactive; / = no result given.

Structure | Mtb MbtI inh | Mtb MenB inh | PV pol inh | PV pol inh intensity
CCCCn1c(N)c(N(Cc2ccco2)C(=O)Cc2coc3cc(OC)ccc23)c(=O)[nH]c1=O | 2 | 4 | 119 | 144
c1csc(CN2CCCCCC2)c1 | -13 | -49 | 99 | 100
C1CN=C(NCC2CCCO2)C1 (configuration not stated) | -55 | 16 | 100 | 102
CCCc1cc(=O)n(CC(=O)Nc2ccccc2)c(-n2nc(C)cc2C)n1 | 15 | -42 | 102 | 108
CCN(C(=O)c1cc2ccccc2o1)c1nc2c(C)cccc2s1 | 0 | 0 | 104 | 107
CN1CCN(S(=O)(=O)c2ccc(SCC(=O)NC3C4CC5CC(C4)CC3C5)nc2)CC1 (configuration not stated) | 9 | -15 | 98 | 99
CCCn1c(/N=C/c2c[nH]c3ccccc23)nc2ccccc21 | -11 | / | 104 | 107
N#CCC(=O)NCc1ccccc1 | -7 | / | 102 | 102
COc1ccc(Nc2nc3ccccc3c(=O)s2)cc1 | -9 | -1 | 101 | 99
CNC(=S)N/N=C1\CCOc2ccc3ccccc3c21 | 31 | 0 | 101 | 98
C=CCNC(=S)N1CCc2cc(OC)c(OC)cc2C1 | -6 | 6 | 99 | 102
CC(C)CCNC(=O)c1ccc2c(Cl)c3c(nc2c1)CCCC3 | 7 | -13 | 101 | 96
CC(C)C(C(=O)O)c1ccc(Cl)cc1 (configuration not stated) | 1 | / | 103 | 98
CCN1CC2=C(OC(N)=C(C#N)C2c2ccc(OC)cc2)/C(=C\c2ccc(OC)cc2)C1 (configuration not stated) | 11 | -35 | 107 | 99
CCCCNC(=O)CC1Sc2ccccc2NC1=O (configuration not stated) | -22 | -3 | 99 | 102
O=C(CN1C(=O)COc2ccccc21)N(CC1CCCO1)c1nc2ccccc2s1 (configuration not stated) | 1 | 7 | 98 | 99
CC(C)(C)Oc1ccc(C(=O)N(Cc2ccc(F)cc2)C2CCOC(C)(C)C2)cc1 (configuration not stated) | / | -3 | 109 | 100
COc1ccc2cc3cc(C(=O)N(C)c4cc(C)ccc4C)oc3nc2c1 | -10 | -14 | 101 | 103
COc1cccc(NC(=O)c2ccc(COc3ccc(Cl)cc3)o2)c1 | 18 | -21 | / | /
Cc1cc(C)c(C#N)c(SCC(=O)Nc2nsc(-c3ccc(Cl)cc3)n2)n1 | 12 | 5 | 102 | 107
CCc1ccc(NC(=O)C(C)Sc2ccc(S(=O)(=O)N3CCN(C)CC3)cn2)cc1 (configuration not stated) | 10 | -10 | 100 | 106
CCN(CC)S(=O)(=O)c1ccc(C(=O)N2N=C3/C(=C/c4cccs4)CCCC3C2c2cccs2)cc1 (configuration not stated) | 3 | 4 | 99 | 102
CS(=O)(=O)N1CCC(c2nc3ccccc3[nH]2)CC1 | -2 | 10 | 101 | 103
COC(=O)c1sc(N)c(C(=O)OC)c1CSc1nnc(C(F)(F)F)n1C | -1 | -14 | 102 | 104
Cc1ccc(NC(=O)CN(C)Cc2cc(=O)n3ccsc3n2)cc1 | -1 | 2 | 102 | 113
COC(=O)c1ccccc1NC(=O)n1ncc2c(C)cccc21 | -9 | -6 | 106 | 106
O=C(NCCCc1ccccc1)C1CCCN1c1nnc(N2CCCC2=O)s1 (configuration not stated) | -4 | -12 | 100 | 103
CCN(CC)C(=O)CSc1nnc(COc2ccc(C)cc2)n1N | -6 | -93 | 104 | 99
CC1Cc2ccccc2N1C(=O)Cn1c(-c2cccnc2)ccc(C#N)c1=O (configuration not stated) | -2 | -8 | 99 | 102
CCc1ccc(NC(=O)Cn2nc(CC)n3c(cc4sccc43)c2=O)cc1 | -1 | -1 | 104 | 102
O=C(Nc1ccc2nn(-c3ccccc3)nc2c1)C(c1ccccc1)c1ccccc1 | 106 | 2 | 101 | 97
Nc1n[nH]c2c1CSc1ccc(Cl)cc1-2 | 63 | -24 | 105 | 105
NC(=O)c1cc(S(=O)(=O)N2CCCC2)ccc1OCc1ccc(F)cc1 | 13 | -17 | 97 | 99
CCc1ccc(N=C2N=C(N)c3ccccc32)cc1 | -1 | -38 | 100 | 101
COc1ccc2c(CSc3nnc(Nc4ccccc4OC)s3)cc(=O)oc2c1 | 25 | -29 | 99 | 101
CCCCS(=O)(=O)Nc1cccc(O)c1 | -13 | 5 | 103 | 83
CCn1c(NNS(=O)(=O)c2ccccc2F)nc2ccccc2c1=O | 46 | -8 | 108 | 115
N#CCSc1nc(-c2ccccc2)cs1 | 7 | -5 | 100 | 102
N#Cc1ccc(C2NC(=O)c3ccccc3N2)cc1 (configuration not stated) | 0 | -21 | 106 | 105
O=C(O)C1CCCN1C(=O)/C=C/c1ccco1 (configuration not stated) | 31 | -39 | 102 | 105

Taken from the results shown, 6 compounds:
Structure | Mtb MbtI inh | Mtb MenB inh | PV pol inh | PV pol inh intensity
COc1ccc2c(CSc3nnc(Nc4ccccc4OC)s3)cc(=O)oc2c1 | 25 | -29 | 99 | 101
CCCCS(=O)(=O)Nc1cccc(O)c1 | -13 | 5 | 103 | 83
CCn1c(NNS(=O)(=O)c2ccccc2F)nc2ccccc2c1=O | 46 | -8 | 108 | 115
N#CCSc1nc(-c2ccccc2)cs1 | 7 | -5 | 100 | 102
N#Cc1ccc(C2NC(=O)c3ccccc3N2)cc1 (configuration not stated) | 0 | -21 | 106 | 105
O=C(O)C1CCCN1C(=O)/C=C/c1ccco1 (configuration not stated) | 31 | -39 | 102 | 105

(cont.)
SMILES | Mtb MbtI inh | Mtb MenB inh | PV pol inh | PV pol inh intensity
C/C=C/C(=O)NC(C)c1ccccc1 (configuration not stated) | -1 | -1 | 96 | 100
CCOC(=O)c1cc(NC(=O)c2ccc3c(c2)OCO3)cc(C(=O)OCC)c1 | 1 | -19 | 98 | 99
COC(=O)C1OC2(CCCC2)OC1C(=O)OC (configuration not stated) | / | 0 | 101 | 104
Cc1cc(NC(=O)CS(=O)(=O)c2cn(Cc3ccccc3Cl)c3ccccc23)no1 | 3 | 9 | 102 | 103
O=C(N1CCOCC1)N1CCC(c2ccc(F)cc2)CC1 | -6 | 14 | 103 | 104
CCS(=O)(=O)Nc1ccc(C(=O)Nc2cc(C)ccc2OC)cc1 | -16 | 0 | 104 | 102
O=C(Nc1ccccc1C(=O)OCc1c(F)cccc1Cl)c1ccco1 | -9 | -29 | 98 | 103
COc1cccc(NC2=NC(C)(C)CS2)c1 | -9 | / | 100 | 100
Nc1ccc(-n2nncc2-c2ccccc2)cc1 | -3 | / | 101 | 97
COC(=O)c1sccc1NC(=O)C1CCCN(S(=O)(=O)N2CCCCCC2)C1 (configuration not stated) | -15 | -10 | 100 | 103
CCC(CC)c1nnc(NC(=O)COc2ccc3c(c2)OCO3)s1 | 36 | -18 | 102 | 102
CC(O)CN=c1cc(-c2ccccc2)oc2ccc(Cl)cc12 (configuration not stated) | 4 | -11 | 98 | 97
O=C(Nc1ccccc1)C1CCN(S(=O)(=O)c2ccccc2)CC1 | 0 | 1 | 100 | 106
COc1ccc(OCc2nnc3n2CCC3)cc1 | -15 | / | 102 | 104
CC(O)(P(=O)(O)O)P(=O)(O)O | 0 | -8 | 104 | 102
Cc1n[nH]c(C)c1SCC(=O)O | 10 | -13 | 105 | 108
CSc1nsc(NC(=O)OCc2ccc(Cl)cc2)n1 | -3 | 8 | 99 | 101
O=C(NC1CCCCC1)NC1(C(=O)N2CCC(O)CC2)CCCCC1 | -15 | -84 | 103 | 106
CCOC(=O)C1=C(C)N=C(SC)N(C)C1c1ccccc1 (configuration not stated) | -7 | -31 | 97 | 90
CCN(CC)CC#Cc1cccc(C)c1 | -4 | -8 | 102 | 103
Clc1ccc(-c2cn3ccccc3n2)cc1 | / | -6 | 102 | 107
CNC(=O)c1ccc(Cn2c(SCc3ccc(F)cc3)nc3ccncc32)cc1 | -1 | -12 | 105 | 105
CCN1C(=O)C(=Cc2c(O)n(CC)c(=O)n(CC)c2=O)C(=O)N(CC)C1=O | 2 | -177 | 106 | 110
CC(C)n1c(O)c(N=NC(=O)C2CC2)c2ccccc21 | 10 | 24 | 104 | 103
Nc1cc(Cl)ccn1 | -2 | -19 | 103 | 106
CCOc1ccc(NS(=O)(=O)N(C)C)cc1 | / | -10 | 110 | 108
O=C(C1CC1)N1CCc2cc(S(=O)(=O)N3CCCCC3)ccc21 | 0 | -13 | 100 | 103
Cc1cc(C(=O)CN2C(=O)C3CC=CCC3C2=O)c(C)n1-c1ccccc1 (configuration not stated) | 12 | 7 | 103 | 96
FC(F)(F)c1cc(-c2cccs2)nc2c1cnn2C1CCCCC1 | 14 | -7 | 92 | 87
CCCCCOCC1Cc2c(C)nn(C(N)=S)c2O1 (configuration not stated) | -1 | -66 | 102 | 102
COc1ccc(C=Nc2ccc(Br)cc2)cc1OC | / | 3 | 105 | 111
CCCn1nc(C(=O)N2CCc3ccccc32)c2ccccc2c1=O | -1 | -11 | 100 | 102
O=C1CSc2cc(S(=O)(=O)N3CCC(Cc4ccccc4)CC3)ccc2N1 | -10 | -27 | 103 | 107
COc1ccc(C(=O)NCc2ccccc2)c(OC)n1 | 0 | -24 | 104 | 108
CCN1CCCC1CNCC(=O)Nc1ccc(C)c(Br)c1 (configuration not stated) | 1 | 20 | 100 | 102
Cc1c2c(nc3nc4ccccc4n13)CC(C)(C)CC2=O | 8 | -24 | 103 | 100
C1CCC2(C1)OCC(CN1CCOCC1)O2 (configuration not stated) | -13 | / | 101 | 106
c1ccc(-c2cn3nc(-c4ccccc4)c(-c4ccccc4)nc3n2)cc1 | / | -25 | 46 | 257
COC(=O)C(Cc1c[nH]c2ccccc12)NC(=O)c1ccc(OC)cc1 (configuration not stated) | 6 | 12 | 101 | 97
COc1ccc(NC(=O)N2Cc3ccccc3-n3cccc3C23CCN(C)CC3)cc1 | 1 | 7 | 102 | 103
CSc1nnc(C2CCCN(C(=O)Nc3ccc(Cl)c(C(F)(F)F)c3)C2)n1C (configuration not stated) | -9 | -61 | 101 | 103
O=C(NCc1cccs1)C1CCCCC1 | 1 | 15 | 101 | 101
Oc1ccc2ccccc2c1CN1CCN(c2ccccn2)CC1 | -1 | / | 104 | 104
O=C1CCCN2N=C(SCC(=O)c3ccc(Cl)cc3)SC2=N1 | 2 | 7 | 102 | 97
CCC(C)N=Cc1c(NCc2ccco2)nc2c(C)cccn2c1=O (configuration not stated) | -1 | 2 | 102 | 103
COC(=O)c1ccccc1NS(=O)(=O)c1cc2c3c(c1)C(C)C(=O)N3CCC2 (configuration not stated) | -11 | 0 | 98 | 107
O=C1C(=Cc2ccc(-c3ccc(F)cc3F)o2)C(=O)c2ccccc21 | 2 | -6 | 101 | 104
CC(=O)Nc1ccc(NC(=O)c2ccc(-c3ccc(Cl)cc3Cl)o2)cc1 | 7 | -11 | 103 | 106
CCn1c(CC(=O)Nc2ccccc2C)nnc1SCC(=O)N1CCN(c2ccccc2)CC1 | -10 | -10 | 102 | 99
CCOc1ccc(CCNS(=O)(=O)c2c(C)cc(C)cc2C)cc1OCC | / | -23 | 106 | 108
O=C(NC1CCCC1)c1ccc(-n2cnc3cccnc32)cc1 | -6 | -11 | 103 | 104
CN(c1ccccc1)S(=O)(=O)c1cccc(C(=O)N2CCCCCC2)c1 | -4 | / | 102 | 96
O=c1cc(O)nc(-c2ccccc2)[nH]1 | -4 | -77 | 97 | 98
CSCCNC(=O)Nc1c(-c2c(Cl)cccc2Cl)noc1C | -4 | 10 | 102 | 104
Cc1ccc(S(=O)(=O)c2cc(O)ccc2O)cc1C | 54 | 9 | 103 | 103
Cn1c(=O)cc(OCC(=O)NCCCN2CCCCCC2)c2ccccc21 | 5 | -9 | 100 | 103
CC(N)c1ccc(S(N)(=O)=O)cc1 (configuration not stated) | 2 | -19 | 103 | 111
O=C(C1c2ccccc2Oc2ccccc21)N1CCC(c2ccccc2)C1 (configuration not stated) | 1 | -7 | 104 | 107
CC(C)c1cc(C(=O)O)n(-c2ccccc2)n1 | / | -7 | 108 | 107
CC(N)c1ccc2c(c1)CCC2 (configuration not stated) | -1 | -4 | 100 | 103

(listing goes on)
SMILES | Mtb MbtI inh | Mtb MenB inh | PV pol inh | PV pol inh intensity
CCCn1c(SCC(N)=O)nnc1C1CC1 | -5 | 15 | 103 | 101
CC(=O)NCCC(=O)Nc1nnc(SCc2ccc(C#N)cc2)s1 | 3 | 0 | 105 | 104
CC(=O)N[C@@H](Cc1c[nH]c2ccccc12)C(=O)O | -15 | 22 | 97 | 102
CCOC(=O)c1cc(C(=O)NN)c(C)nc1C | -19 | -29 | 104 | 101
c1csc(CNC2=NCCS2)c1 | 12 | 15 | 105 | 99
O=C(O)c1n[nH]c2c1CCC2 | 5 | -2 | 103 | 103
O=c1cc(CN2CCCCC2)c2cc(O)ccc2o1 | 8 | -25 | 105 | 110
